SNCA expr inh – inhibitors of alpha-synuclein (SNCA) gene expression; HEK-293 SNCA-luciferase knock-in, luminescence, 24 h; Potency, µM (series often up to 57.2 µM), without a hit: top-dose activity change, negative = inhibition, hits mostly inhibitors; 140,000 tested, 0.17% active; AID 1671194;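 also: potency is read from the fitted curve at half-maximal effect; plate controls were DMSO cells for no effect and cell-free wells for full effect; nearly all actives have a fitted effect of over 45% in size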
HEK293 tox – HEK 293 cell cytotoxicity | HEK 293 viability, ATP luminescence (CellTiter-Glo), 48-72 h | 94,000 tested, 6.6% active | Potency, µM (series often up to 115 µM), inactives show at the highest dose activity change, negative = cytotoxicity, actives largely listed as inhibitors; also: potency is read from the fitted curve at half-maximal effect; nearly all actives have a fitted effect of over 60% in size
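Read-out: CellTiter-Glo ATP luminescence. Cells: HEK 293, 250 cells/well. Exposure: 48 or 72 hr, 37 degree Celsius.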
IP6K1 inhibitor – IP6K1 kinase inhibition; activity change, % (series mostly up to about 58 µM); IP6K1 kinase, ADP-Glo luminescence, 2 h; hits give low values; AID 1645851; Q92551; 140,000 tested, 0.81% active; in the data active = activity change below about -25%
Target sequence (Q92551 whole entry, looked up): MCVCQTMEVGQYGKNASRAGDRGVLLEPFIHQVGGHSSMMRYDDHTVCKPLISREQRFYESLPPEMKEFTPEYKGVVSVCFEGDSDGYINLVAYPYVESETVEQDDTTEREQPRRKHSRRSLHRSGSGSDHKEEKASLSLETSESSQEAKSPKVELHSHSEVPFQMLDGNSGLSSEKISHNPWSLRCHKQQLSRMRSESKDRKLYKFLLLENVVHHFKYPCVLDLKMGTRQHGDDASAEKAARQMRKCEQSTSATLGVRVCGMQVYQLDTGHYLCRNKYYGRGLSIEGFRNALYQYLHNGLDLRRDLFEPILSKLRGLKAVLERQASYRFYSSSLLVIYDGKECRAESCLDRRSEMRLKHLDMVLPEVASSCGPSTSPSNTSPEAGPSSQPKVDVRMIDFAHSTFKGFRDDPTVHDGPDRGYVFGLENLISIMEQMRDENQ
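ADP-Glo luminescence measures ADP made by human IP6K1 during a 2 h RT reaction with ATP/IP6 (mix at 1.3 mM/130 uM); top library doses 57.5 and 19.1 uM final.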
HEK293 viab – reduces viability of HEK-293 SNCA reporter cells. HEK-293-SNCA-luc viability, GF-AFC fluorescence, 24 h. Potency, µM (top dose mostly 57.1 µM), for inactives: at the top dose activity change, negative = cytotoxicity, usual class: cytotoxic. 150,000 tested, 0.12% active. AID 1671193;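 also: potency is read from the fitted curve at half-maximal effect; 0% = DMSO-treated cells and -100% = medium-only wells without cells; nearly all actives have a fitted effect of over 30% in size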
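Cytotoxicity counterscreen: after 24 h compound treatment of genome-edited SNCA-luciferase HEK-293 cells, live-cell protease substrate GF-AFC read by fluorescence after 30 min; activity scaled between DMSO (0%) and medium-only (-100%), curves Hill-fitted.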
NIH3T3 tox – cytotoxic compounds in NIH 3T3 cells; NIH 3T3 viability, CellTiter-Glo ATP luminescence, 48-72 h; Potency, µM (top dose mostly 96.7 µM), inactives show at the highest dose activity change, negative = cytotoxicity, usual class: inhibitors; 94,000 tested, 4.3% active; AID 1345082; also: potency is read from the fitted curve at half-maximal effect; nearly all actives have a fitted effect of over 55% in size
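NIH 3T3 cells at 400 cells/well received 23 nL of compound by pintool and were incubated 48 or 72 h at 37 °C. Viability was read as ATP-coupled CellTiter-Glo luminescence.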
Luciferase inh – inhibitors of firefly (Photinus pyralis) luciferase | P08659 | Potency, µM (highest dose often 115 µM), for inactives: at the highest dose activity change, negative = inhibition, most hits filed as inhibitors | purified P. pyralis luciferase, luminescence, biochemical | 76,000 tested, 2.5% active; also: potency is read from the fitted curve at half-maximal effect; nearly all actives have a fitted effect of over 65% in size
Target sequence (P08659 whole entry, looked up): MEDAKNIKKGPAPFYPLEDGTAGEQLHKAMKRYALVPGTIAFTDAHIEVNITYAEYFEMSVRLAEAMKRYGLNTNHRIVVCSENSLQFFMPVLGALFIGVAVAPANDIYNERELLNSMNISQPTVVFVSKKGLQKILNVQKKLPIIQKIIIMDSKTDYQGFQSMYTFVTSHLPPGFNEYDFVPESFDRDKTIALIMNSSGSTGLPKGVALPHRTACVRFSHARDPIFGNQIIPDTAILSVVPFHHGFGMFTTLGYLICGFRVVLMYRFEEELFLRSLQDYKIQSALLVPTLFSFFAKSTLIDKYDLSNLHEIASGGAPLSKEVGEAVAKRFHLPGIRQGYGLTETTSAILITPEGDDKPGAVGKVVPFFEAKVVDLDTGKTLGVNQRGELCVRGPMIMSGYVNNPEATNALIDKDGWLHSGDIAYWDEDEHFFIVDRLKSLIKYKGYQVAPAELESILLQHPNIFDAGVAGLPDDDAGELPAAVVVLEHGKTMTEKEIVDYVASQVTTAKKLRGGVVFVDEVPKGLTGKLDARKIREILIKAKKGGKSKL
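Purified 10nM P. pyralis luciferase with 10uM D-luciferin and 10uM ATP in 50mM Tris acetate pH 7.5, 10mM Mg acetate, 0.01% Tween-20, 0.05% BSA. qHTS titration; luminescence read by CCD imager.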
* hit, by the source's call; i = inactive; ? = inconclusive; . = not tested or not shown; & = joins results of further samples; [ ] = remark or other dose. Unless noted, calls follow the shape of the dose curve; as a rule, active = well fitted curve in the direction sought with a large enough effect; inconclusive = small, poorly fitted or top-dose-only effect, or another doubt; inactive = no such curve, though single readings can be large; an effect the other way counts as inactive or inconclusive. Unless noted, % is scaled to controls: 0 for no effect and ±100 for the full control effect. Only part of the results is shown; the hit share may differ from the screen's.

item | SMILES | NIH3T3 tox | SNCA expr inh | HEK293 tox | Luciferase inh | IP6K1 inhibitor | HEK293 viab
1 | COc1ccc(N2Cc3c(NCC4CCCCC4)ncnc3N(C)CC2=O)cc1 | ? | -14% | ? | 3% | -10 | -3%
2 | CCNC(=O)N[C@H]1[C@H](O)[C@@H](N(C)CCN(C)C)[C@@H]2OC[C@H]1O2 | -3%[174 µM] | -4%[87.6 µM] | -11%[172 µM] | 1%[172 µM] | 6 | -11%[87.6 µM]
3 | O=C(c1n[nH]c2ccccc12)N1CCCC(Cc2noc(-c3cnccn3)n2)C1 (stereo unspecified) | -12% | 9% | 4% | -7% | 6 | -10%
4 | Cn1cc(-c2ccc3ncc(Cc4ccc5ncccc5c4)n3n2)cn1 | . | -31% | . | . | -13 | -31%&3%
5 | Fc1ccc(OC2CN(Cc3ccccc3)C2)cc1F | -16%[138 µM] | 5%[87.6 µM] | -27%[172 µM] | . | -11 | 6%[87.6 µM]
6 | O=C(c1n[nH]c2c1CCCC2)N1CCC2(CC1)NC(=O)N(c1ccc(F)cc1)N2 | ? | 0% | ? | 4% | 11 | -10%
7 | O=C(NC1CCCN(c2cc(N3CCCC3)ncn2)C1)c1ccoc1 (stereo unspecified) | -13% | 2% | -1% | -5% | 4 | -15%
8 | COCCOCc1nc(C2CCCN2)no1 (stereo unspecified) | -3% | 7% | -5% | 0% | -5 | 2%
9 | CCn1ccc2oc(C)c(C(=O)NCc3ccccc3C)c2c1=O | -25% | -16% | -26% | -8% | 21 | -2%
10 | CCN(CC)C(=O)CC[C@@H]1CNC(=O)[C@@H]2C[C@H](NCc3ccc(F)cc3)CN12 | -9%[174 µM] | 3%[87.6 µM] | 2%[172 µM] | 3%[172 µM] | 3 | -3%[87.6 µM]
11 | COc1ccc(-c2ccc3nc(-c4ccc(Cl)cc4)oc3c2)c(OC)c1OC | -24% | 25% | -25% | ? | -7 | -9%
12 | NCC(=O)N1CCC2(CC1)CN(C(=O)c1ccc(Cl)cc1)CCO2 | 2% | -23% | i | . | 1 | -6%
13 | CCCOc1ccc(-c2nc3ccc(-c4ccc(OC)c(OC)c4OC)cc3o2)cc1 | ? | 19% | ? | -16% | 1 | -2%
14 | O=C(NC1CCCN(c2cc(-c3ccc(F)cc3)[nH]n2)C1)c1ccc2c(c1)OCO2 (stereo unspecified) | ? | 21% | ? | ? | 4 | -17%
15 | CC(C)(C)CC(=O)N1CCC2(CC1)OCC(C(=O)N1CCCC1)N2C(=O)c1ccc(F)cc1 (stereo unspecified) | -2% | 1% | i | -2% | 2 | -4%
16 | CC1CCN([C@@H]2[C@H](O)[C@H](CO)O[C@@H]2CN(Cc2ccc(F)cc2)Cc2ccc(F)cc2)CC1 | ? | 6% | ? | -4% | 15 | 2%
17 | COc1ccccc1S(=O)(=O)NC1CCCN(C2CCCCCC2)C1 (stereo unspecified) | -4% | 2% | ? | -3% | 0 | 4%
18 | COc1ccccc1CNC(=O)c1c(C)sc2ccn(Cc3ccc(F)cc3)c(=O)c12 | ? | 7% | ? | -3% | 0 | -1%
19 | COCCn1c(=O)c(C(=O)NC(C)c2ccc(F)cc2)nc2cccnc21 (stereo unspecified) | -16% | -12% | 2% | . | 5 | -8%
20 | Cc1cnc(C2CCOCC2)n1C1CCCNC1 (stereo unspecified) | 0% | 25% | -25% | -1% | 14 | 0%
21 | O=C(NCCN1CCCC1)C1Cn2cccc2C(=O)N1Cc1ccccc1 (stereo unspecified) | -6% | -11% | i | -1% | -6 | 4%
22 | COc1ccccc1-c1onc(C)c1C(=O)NCCc1cccc(Cl)c1 | ? | -24% | ? | -10% | 18 | -6%
23 | COc1cccc(NC(=O)c2cnc3n2CCN(Cc2ccccc2)CC3)c1 | ? | 28%[87.6 µM] | ? | ? | -9 | -9%[87.6 µM]
24 | O=C(O)C[C@@H]1CCN(C(=O)COc2ccccc2)C[C@@H]1CCN1CCN(c2ccc(F)cc2)CC1 | i | -9% | i | -2% | 5 | 1%
25 | CCC(C)NC(=O)c1ccc2c(c1)CC(=O)N2C (stereo unspecified) | -3% | -9% | 8% | 5% | -3 | 11%

Next results.
item | SMILES | NIH3T3 tox | SNCA expr inh | HEK293 tox | Luciferase inh | IP6K1 inhibitor | HEK293 viab
26 | Cc1sc2ccn(Cc3ccc(F)cc3)c(=O)c2c1C(=O)NC1CCCC1 | -6% | 18% | ? | 0% | 16 | -6%
27 | Cc1cccc(OCCc2noc(C3CNC3)n2)c1 | 28µM* | ? | 28µM* | -2% | -6 | ?
28 | CCCN1CCCn2nc(CNC(=O)Nc3ccccc3SC)cc2C1 | -24% | 4% | -14% | 3% | -7 | 7%
29 | CCN(CC)C(=O)CC[C@@H]1CNC(=O)[C@@H]2C[C@H](NCc3ccccc3)CN12 | i | 2%[87.6 µM] | i | 6%[172 µM] | -6 | -13%[87.6 µM]
30 | COCC(=O)Nc1ccc(-c2c(-c3ccccc3OC)nn(-c3ccc(C)cc3)c2OC(C)=O)cc1 | -24% | 10% | ? | ? | 21 | 12%
31 | CN1[C@@H](CCC(=O)N2CCc3ccccc32)CNC(=O)[C@@H]2[C@H]1CCN2Cc1ccc(O)cc1 | -2% | ? | i | 3% | 5 | 1%
32 | CC(O)c1cc2n(n1)CCCN(C(=O)c1n[nH]c3c1COCC3)C2 (stereo unspecified) | -20% | -9% | -9% | 0% | 2 | -2%
33 | COCc1noc([C@@H]2CC(F)(F)CN2)n1 | -8% | -7% | -7% | -7% | 32 | -5%
34 | COc1cccc(-c2nc3cnccn3c2NCCC(=O)Nc2ccc(F)cc2C)c1 | -5% | 12% | -19% | -18% | 18 | ?
35 | CN(C(=O)CN1C(=O)NC2(CCOCC2)C1=O)C1CCCCC1 | i | -15% | 6% | -3% | 13 | 5%
36 | Cc1ccc(C(=O)N2C(C(=O)N3CCCC3)COC23CCN(C(=O)c2ccc(F)cc2)CC3)cc1 (stereo unspecified) | -13% | -21% | -25% | 4% | 11 | -20%
37 | CCN(CC)C(=O)CC[C@@H]1CNC(=O)[C@@H]2C[C@H](NC(=O)c3cccs3)CN12 | i | -9%[87.6 µM] | 2%[172 µM] | -6%[172 µM] | 3 | 6%[87.6 µM]
38 | O=C(c1ccc2c(c1)OCO2)N1CCN(C2CCNCC2)C(=O)C1 | -12% | 0% | -6% | . | 30 | -4%
39 | O=C(O)c1cn2ccnc(-c3ccc(F)cc3)c2n1 | -1% | -29% | 4% | -3% | -7 | 6%
40 | CC1CCCCN1c1ccc(C(N)=O)cc1NC(=O)CS(C)(=O)=O (stereo unspecified) | -14% | -5% | -18% | 10% | -3 | 3%
41 | COc1cccc(-c2nc3ccc(-c4ccc5c(c4)OCO5)cc3o2)c1OC | ? | 117%[activator] | ? | 1.1µM* | 33 | -6%
42 | CCN(CC)C(=O)c1c(C)sc2ccn(Cc3ccc(F)cc3)c(=O)c12 | -13% | 8% | -30% | 1% | 3 | 5%
43 | CCn1ccnc1CN1CCc2[nH]cnc2C1c1ccc(OC)c(F)c1F (stereo unspecified) | -9% | 7% | -18% | -4% | 2 | 3%
44 | O=C(Cc1cc2c(cc1Cl)OCCO2)N[C@@H]1COCC[C@@H]1OCC1CC1 | -9% | 11% | -4% | 0% | -1 | 0%
45 | CN(C)c1ccc(C(=O)N2CC[C@@H](CC(=O)O)[C@@H](CCN3CCN(c4ccccc4)CC3)C2)cc1 | i | -23% | i | -1% | 7 | -8%
46 | COC[C@H]1CCCN1C(=O)[C@@H](C)C1CC[C@@]2(C)CC[C@H](NC(=O)CC(C)(C)C)[C@@H](C)[C@@H]2[C@H]1O (stereo partly specified) | -6% | ? | -11% | 0% | -8 | 3%
47 | CN1C(=O)c2cccn2CC1CNC(=O)NC1CCCC1 (stereo unspecified) | i | -5% | 1% | 1% | 2 | -1%
48 | CCCc1nc(NCC(c2ccccn2)N2CCOCC2)c2cnn(C)c2n1 (stereo unspecified) | -21% | -6% | -1% | -2% | 8 | 0%
49 | Cc1cccc(OCCc2noc(C3CCCN(Cc4ccccc4C#N)C3)n2)c1 (stereo unspecified) | ? | 46%[activator] | 89µM* | -1% | 0 | -16%
50 | CN(C)c1ccc2ncc(Nc3ccccc3)n2n1 | ? | 39%[activator][87.6 µM] | 112µM* | ? | 1 | 4%[87.6 µM]

Some of the entries so far, with one line to a screen:
26: Cc1sc2ccn(Cc3ccc(F)cc3)c(=O)c2c1C(=O)NC1CCCC1
38: O=C(c1ccc2c(c1)OCO2)N1CCN(C2CCNCC2)C(=O)C1
21: O=C(NCCN1CCCC1)C1Cn2cccc2C(=O)N1Cc1ccccc1 (stereo unspecified)
49: Cc1cccc(OCCc2noc(C3CCCN(Cc4ccccc4C#N)C3)n2)c1 (stereo unspecified)
17: COc1ccccc1S(=O)(=O)NC1CCCN(C2CCCCCC2)C1 (stereo unspecified)
assay / entry | 26 | 38 | 21 | 49 | 17
NIH3T3 tox | -6% | -12% | -6% | ? | -4%
SNCA expr inh | 18% | 0% | -11% | 46%[activator] | 2%
HEK293 tox | ? | -6% | i | 89µM* | ?
Luciferase inh | 0% | . | -1% | -1% | -3%
IP6K1 inhibitor | 16 | 30 | -6 | 0 | 0
HEK293 viab | -6% | -4% | 4% | -16% | 4%

Compounds 49 to 50, reprinted for reference:
item | SMILES | NIH3T3 tox | SNCA expr inh | HEK293 tox | Luciferase inh | IP6K1 inhibitor | HEK293 viab
49 | Cc1cccc(OCCc2noc(C3CCCN(Cc4ccccc4C#N)C3)n2)c1 (stereo unspecified) | ? | 46%[activator] | 89µM* | -1% | 0 | -16%
50 | CN(C)c1ccc2ncc(Nc3ccccc3)n2n1 | ? | 39%[activator][87.6 µM] | 112µM* | ? | 1 | 4%[87.6 µM]

Continued:
item | SMILES | NIH3T3 tox | SNCA expr inh | HEK293 tox | Luciferase inh | IP6K1 inhibitor | HEK293 viab
51 | COc1ccccc1CNc1ncnc2c1CN(C1CCCNCC1)C(=O)CN2C (stereo unspecified) | i | 1% | 2% | . | -4 | -3%
52 | CCN1CCC2(CCC1=O)CN(C(=O)CCCc1cccs1)CCN2C (stereo unspecified) | i | 0% | 2% | -4% | 26 | 1%
53 | O=C(CNC(=O)c1cccc(-c2ccsc2)c1)NCc1ccc(C(F)(F)F)cc1 | -24% | 0% | -9% | . | 6 | -5%[12.5 µM]
54 | COc1ccc(CCNc2ncnc3c2CN(C2CCC2)C(=O)N(C)C3)cc1 | ? | 10% | ? | -2% | -4 | 13%
55 | COc1ccc(OC)c(-c2nc3ccc(-c4ccc(OC)c(OC)c4OC)cc3o2)c1 | ? | 7% | ? | -28% | 27 | 6%
56 | CN1[C@@H](CCC(=O)NCc2ccc(F)cc2)CNC(=O)[C@@H]2[C@H]1CCN2Cc1ncc[nH]1 | -21%[174 µM] | 6%[87.6 µM] | -12%[172 µM] | -3%[172 µM] | -2 | 1%[87.6 µM]
57 | Cc1cccc(-c2nc3cnccn3c2NCCC(=O)N(C)C)c1 | 2% | 5% | -1% | 10% | -3 | 27%
58 | Cc1cc(OC2CN(Cc3ccc(C(F)(F)F)cc3)C2)ccc1F | ? | -38%[87.6 µM] | ? | -2%[172 µM] | 0 | -9%[87.6 µM]
59 | O=C(O)C[C@@H]1CCN(C(=O)c2ccc(C(F)(F)F)cc2)C[C@@H]1CCN1CCOCC1 | -6%[174 µM] | ? | i | -16%[172 µM] | 1 | 7%[87.6 µM]
60 | CN(C(=O)CC(c1cccc(O)c1)c1cccc(Cl)c1)C1CCOCC1 (stereo unspecified) | -25% | 41%[activator] | -29% | -10% | 10 | -2%
